Mtb H37Rv = M. tuberculosis H37Rv growth inhibitors, H37Rv strain (AID 1626) | M. tuberculosis H37Rv growth inhibition; higher % means a stronger effect | one-dose inhibition, % at 10 µM; IC50 in µM for titrated hits | hit rate 0.95% among 220,000;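 active = confirmed in a dose series; inconclusive = inhibition above 80% but not taken into the dose series; inactive = below 80% or under 30% at every dose of the series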;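 note: bacteria incubated seven days before Alamar blue readout; 0% = bacteria only wells and 100% = bacteria with antibiotic wells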
RecA intein inh = Mtb RecA intein splicing inhibitors, primary screen, biochemical, fluorescence, HTS; Protein RecA (Mycobacterium tuberculosis (strain ATCC 25618 / H37Rv)), P9WHJ3; cell-free RecA intein splicing; inhibition, %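 (about 9 µM by stock and volumes)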; hit rate 0.75% among 290,000; in the data active = inhibition above about 30%; inconclusive = no clear call, values can overlap the other calls;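 note: 0% = vehicle wells and 100% = reference inhibitor control wells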
Target sequence (P9WHJ3 whole entry, looked up): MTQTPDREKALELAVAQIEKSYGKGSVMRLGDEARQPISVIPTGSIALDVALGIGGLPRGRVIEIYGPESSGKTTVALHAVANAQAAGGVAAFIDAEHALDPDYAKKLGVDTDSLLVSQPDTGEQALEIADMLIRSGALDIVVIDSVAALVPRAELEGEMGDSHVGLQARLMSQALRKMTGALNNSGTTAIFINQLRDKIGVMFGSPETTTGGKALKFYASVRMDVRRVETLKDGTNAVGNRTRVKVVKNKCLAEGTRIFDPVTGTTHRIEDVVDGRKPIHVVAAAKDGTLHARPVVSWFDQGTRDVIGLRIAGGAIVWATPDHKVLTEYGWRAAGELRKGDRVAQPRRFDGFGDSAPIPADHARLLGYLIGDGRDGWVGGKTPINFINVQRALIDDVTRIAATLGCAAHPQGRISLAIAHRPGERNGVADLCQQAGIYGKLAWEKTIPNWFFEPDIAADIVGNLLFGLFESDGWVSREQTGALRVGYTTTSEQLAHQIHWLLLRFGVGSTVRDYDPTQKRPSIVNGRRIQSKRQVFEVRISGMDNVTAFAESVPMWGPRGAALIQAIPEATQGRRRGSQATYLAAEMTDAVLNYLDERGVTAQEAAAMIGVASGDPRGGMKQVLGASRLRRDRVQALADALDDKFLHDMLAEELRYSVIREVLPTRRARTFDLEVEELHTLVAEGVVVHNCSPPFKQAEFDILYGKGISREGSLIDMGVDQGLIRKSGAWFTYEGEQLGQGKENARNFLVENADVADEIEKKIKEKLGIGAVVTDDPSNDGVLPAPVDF
Arbovirus inh = antivirals against arbovirus infection, primary screen, cell-based, full library, 10K replicate subset; arbovirus infection cell-based antiviral screen; inhibition, % at 10 µM; hit rate 0.37% among 200,000; AID 1251, 2008;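 active = inhibition from about 30%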;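 note: bluetongue infection of BSR cells; cell survival read as ATP light after 72 h; 0% = infected wells without compound and 100% = uninfected wells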
Mtb bLac sens = beta-lactam sensitization of Mtb H37Rv, H37Rv. M. tuberculosis H37Rv growth with meropenem, percent inhibition; hits of this screen are not shown here. inhibition, % at 25 µM. hit rate 0.27% among 330,000. AID 434955, 2010;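 active = about 74% or more and at least 40 points above the plate without the antibiotic, then above 30% in a dose series; inconclusive = first-round hits that could not be retested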;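 note: growth measured after seven days incubation then overnight dye step; 0% = bacteria only wells and 100% = bacteria with antibiotic; twin plates without the antibiotic show which effects depend on it; some results filed as inactive read as strong as hits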
YopH PTP inh = YopH tyrosine phosphatase inhibitors, primary screen, biochemical, fluorescence Ex485/Em525; YopH tyrosine phosphatase [Yersinia enterocolitica]; AID 898, 2007; hit rate 0.16% among 140,000; inhibition, %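 (about 10 µM by stock and volumes)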;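 active = inhibition of 50% or more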;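 note: controls were vehicle for no effect and minimum signal wells for full effect; inactives centre near -20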
Arbovirus inh repeat = second read-out of Arbovirus inh, no call of its own (marks repeat the call); inhibition, %; measured here: 10K subset replicate screen; many hits read low in the repeat;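 first of two repeat runs on a subset; 0% = infected and 100% = uninfected wells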
* hit, by the source's call; ? = inconclusive; . = no result given. These rows are one share of the data; rates above refer to the full screens.

SMILES	Mtb H37Rv	RecA intein inh	Arbovirus inh	Mtb bLac sens	YopH PTP inh	others
N#Cc1c(-c2ccccc2)nc(SCC(=O)N(c2ccccc2)c2ccccc2)[nH]c1=O	-7%	16	33*	6	-22
Cc1cc(C)c(C)c(OCCCOc2cccc3cccnc23)c1	12%	18	-37	78	-9
N#Cc1ccccc1NC(=O)COC(=O)CCc1ccc(S(=O)(=O)N2CCCCC2)cc1	0%	1.3	-3	-5	-30
CC1CN(C(C)C)C(C)CC1OC(=O)c1ccccc1 (stereo not given)	.	-0.8	.	-11	.
COc1ccccc1CC(=O)Nc1ccc2c(c1)C(=O)NC2=O	2%	.	-4	-8	.
CCN(CC)CCCNC(=O)c1[nH]c(C)c(C(=O)NC2CCCCC2)c1C	-14%	-1.3	2	?	-21
O=C(OC1CCOC1=O)C1CCN(S(=O)(=O)c2ccc(Cl)c(C(F)(F)F)c2)CC1 (stereo not given)	.	0.1	.	-2	.
COCc1cc(C)nc(SCC[N+](C)(C)CC(=O)c2ccccc2)c1C#N	-1%	-0.4	1	3	.
COc1ccccc1C(=O)NC(=O)COC(=O)CN1C(=O)NC2(CCCCC2C)C1=O (stereo not given)	.	3.9	.	-5	.
COc1ccc(-n2c(C)cc(/C=C3\C(=O)NN(c4ccccc4)C3=O)c2C)cc1	12%	-3.6	-5	30	-13
CC(=O)c1c(C)[nH]c(C(=O)Nc2ccc(C)c(C)c2)c1C	2%	2.2	0	5	-1
CCOC(=O)c1c(C2COc3ccccc3O2)csc1NC(=O)c1ccccc1 (stereo not given)	-5%	-1.0	8	89	-33
Cc1cc(C)n(CCCNC(=O)c2ccc(C)c(S(=O)(=O)N3CCOCC3)c2)n1	.	-1.7	.	-3	.
CCOc1ccc(S(=O)(=O)N(C)CC(=O)NCc2ccc3c(c2)OCO3)cc1	.	0.5	.	-12	.
COc1ccc(CC(=O)Nc2ccc(C(=O)Nc3ccccc3C(=O)O)cc2)cc1OC	-6%	-0.7	27	1	-15

Retrieved one by one from above (three):
SMILES	Mtb H37Rv	RecA intein inh	Arbovirus inh	Mtb bLac sens	YopH PTP inh	others
N#Cc1c(-c2ccccc2)nc(SCC(=O)N(c2ccccc2)c2ccccc2)[nH]c1=O	-7%	16	33*	6	-22
O=C(OC1CCOC1=O)C1CCN(S(=O)(=O)c2ccc(Cl)c(C(F)(F)F)c2)CC1 (stereo not given)	.	0.1	.	-2	.
COc1ccccc1CC(=O)Nc1ccc2c(c1)C(=O)NC2=O	2%	.	-4	-8	.

Further records
SMILES	Mtb H37Rv	RecA intein inh	Arbovirus inh	Mtb bLac sens	YopH PTP inh	others
N#Cc1ccc(CSc2nnc(-c3ccncc3)o2)cc1	2%	0.5	9	-11	.
O=C(CSc1nnc(-c2cccc(F)c2)o1)N1CCOCC1	.	-0.6	.	2	.
Cn1c(=O)[nH]c(=O)c2c1nc(N1CCCCCC1)n2CCSc1nc2ccccc2o1	.	-4.5	-3	-6	.	Arbovirus inh repeat=-2
COc1cc(NC(=O)c2ccco2)c(C(=O)OCC(=O)Nc2ncc(Cl)cc2Cl)cc1OC	-11%	0.6	0	-1	-14
O=C(COC(=O)/C=C/c1ccccc1Cl)NCc1ccco1	0%	0.7	-1	2	.
CCn1cc(Br)c(C(=O)Nc2ccc(Cl)cc2Cl)n1	6%	5.7	7	5	-16
CC(c1ccncn1)N(C)C(=O)c1ccc2oc(Cc3ccccc3)nc2c1 (stereo not given)	.	3.2	.	-9	.
COC(=O)c1ccc(Cn2nc(C)c([N+](=O)[O-])c2C)o1	4%	3.9	-1	8	.
O=C(CSc1nnc(NC(=O)C2CCC2)s1)NC1CC1	-7%	5.0	-1	-5	-117
ClC(Br)=C(n1cnc2ccccc21)n1cnc2ccccc21	.	1.1	-11	5	-24
O=C(NCc1ccccc1)c1onc(CSc2ccc(Cl)cc2)c1C(=O)NCc1ccccc1	6%	2.5	.	-7	.
COc1ccc(-c2nnc(Nc3nc4c(OC)cccc4s3)o2)c(OC)c1	4%	.	-22	-2	-26
CCn1c(SCC(=O)NCc2ccccc2)nc2nc3c(cc2c1=O)CCCC3	-6%	-0.7	1	-3	.
CCNC(=S)Nc1cc(OCC)c(NC(=O)c2cccs2)cc1OCC	12%	-8.7	-6	-7	-14
COc1ccc(CN2C(=O)CS/C2=N/N=C/c2cccs2)cc1	-12%	0.2	.	6	.
O=C(NCCN1CCOCC1)c1sc2ccccc2c1Cl	0%	2.0	5	-5	.
Cc1ccc(SCc2c(C(=O)N/N=C/C3CC=CCC3)nnn2-c2nonc2N)cc1 (stereo not given)	0%	4.4	.	-2	.
Cc1nc(NC(=O)COc2ccccc2)sc1C(=O)Nc1ccccc1	2%	-1.5	-4	5	-33
COc1ccc(Cn2ccnc2SCC(=O)NC2CCCC2)cc1	.	2.2	.	-11	.
COc1ccc(NC(=O)c2ccco2)cc1NC(=O)COc1ccccc1	.	1.0	.	9	.
COc1ccc(CNC(=O)COC(=O)/C=C/c2ccco2)cc1	-1%	.	20	-5	.
CC1CN(C(=O)c2cc3ccccc3oc2=O)CC(C)O1 (stereo not given)	-6%	-0.6	5	4	-16	Arbovirus inh repeat=4
COc1ccc(CNC(=O)C2CCCN2S(=O)(=O)c2ccc(C)cc2)cc1 (stereo not given)	5%	5.0	-2	1	-16
Cc1c(NS(=O)(=O)c2ccccc2F)c(=O)n(-c2ccccc2)n1C	.	-6.3	.	4	.
C/C(=N\N=C(/N)SC1CC(=O)N(c2ccc(Cl)cc2)C1=O)c1cccs1 (stereo not given)	65%	6.4	-3	94	-5
Cc1ccc(S(=O)(=O)NC(C)(C)CN2CCCCC2)cc1	.	-1.0	.	4	.
OCCN1CCN(C(=S)Nc2ccc(Oc3ccccc3)cc2)CC1	1%	0.5	-2	4	.
COc1ccc(CCNS(=O)(=O)c2ccc(C3CNC(=O)C3)cc2)cc1OC (stereo not given)	2%	-0.2	1	3	36
Cc1ccc(N2CC(C(=O)NCc3cccnc3)CC2=O)cc1 (stereo not given)	-14%	0.6	2	1	-22
CC(=O)c1c(C)[nH]c(-c2ccccc2)c1C	1%	3.1	-11	-4	-16
Nc1nnc(CC(=O)N/N=C\c2ccc(-c3cccc(Cl)c3)o2)s1	8%	4.4	.	7	.
COc1ccc(C2CC(c3ccc(OC)c(OC)c3)=NN2C(=O)c2ccccc2)cc1 (stereo not given)	.	0.1	.	-1	.
O=C1/C(=C/c2cccc(F)c2)Oc2cc(O)ccc21	.	-1.8	.	47	.
CCOC(=O)NC(=O)c1cn(Nc2ncc(Cl)cc2C(F)(F)F)c(=O)[nH]c1=O	-9%	-0.5	.	-1	.
O=S(=O)(c1ccc(F)cc1)N1CCCC1	.	-0.3	.	0	.
Cc1nn(-c2ccccc2)c(Cl)c1C(=O)NCc1ccccc1F	.	-0.4	.	3	.
CCC(Cc1ccccc1)NC(=O)CN(C)S(=O)(=O)c1ccc2c(c1)c(=O)n(C)c(=O)n2C (stereo not given)	0%	-0.6	-13	-5	-48
O=C(CSc1cccc[n+]1[O-])c1cccs1	?	-1.3	3	97	.
Cc1c(C(=O)NCc2ccc3c(c2)OCO3)oc2ccc(S(=O)(=O)N3CCCC3)cc12	3%	0.6	-3	5	-5	Arbovirus inh repeat=0
Cc1nc2c(c(C)nn2-c2ccccc2)c(C)c1Cl	8%	2.6	5	-4	-10	Arbovirus inh repeat=3
Cc1noc(C)c1CSc1ccccc1C(=O)N(C)CC(=O)Nc1cccc(F)c1	.	-1.4	.	-5	.
O=C(Nc1ccc([N+](=O)[O-])cc1)c1cc(Cl)sc1Cl	.	4.2	.	-2	.
COC(=O)c1ccc(OCC(O)CN(CCO)CCO)cc1 (stereo not given)	-2%	1.4	8	-1	-25
O=[N+]([O-])c1ccc(N2CCCC2)cc1N1CCCC1	9%	1.0	3	-5	-23
Cc1cc(C)nc(N2CCC(C(=O)Nc3ccc(Oc4ccccc4)cc3)CC2)n1	-5%	4.7	-14	27	-143
CC(C)C/C=C1\CCc2c([nH]c3ccccc23)C1=O	6%	-0.7	11	7	.
CCCCOc1ccccc1NC(=O)c1ccc(=O)[nH]c1	-11%	-1.4	4	2	-17
FC(F)(F)c1cccc(-c2ccn3ncnc3n2)c1	7%	-0.8	2	1	.
O=C(Nc1cccc(Cl)c1)C1CCCN(c2cnccn2)C1 (stereo not given)	.	-0.5	.	2	.
CCCNc1nc2c(c(=O)n(C)c(=O)n2C)n1Cc1ccc(F)cc1	4%	0.4	13	0	-5	Arbovirus inh repeat=9
COCCOC(=O)C1=C(C)Nc2cc(=O)[nH]c(=O)n2C1c1cccc([N+](=O)[O-])c1 (stereo not given)	6%	2.0	18	4	-37
COc1ccc(S(=O)(=O)N2CCN(CCc3ccccc3)CC2)c(OC)c1	.	-0.3	.	-4	.
CCO[C@H]1OC(C(=O)N2CCN(Cc3ccc4c(c3)OCO4)CC2)=C[C@@H](C(C)(C)C)[C@@H]1CCCO	-1%	1.0	13	-1	.
O=C(/C=C/c1ccccc1)N1CCN(S(=O)(=O)c2ccc(F)cc2)CC1	1%	-1.4	-4	4	.
S=c1nccc(-c2cc(Cl)sc2Cl)[nH]1	-11%	2.6	0	8	-20
Cc1noc2ncnc(Oc3ccc4ccccc4c3)c12	.	3.4	19	43	-30
Cc1cccc(N2CCN(S(=O)(=O)c3cccc4nonc34)CC2)c1C	8%	1.8	6	8	-21
CCOC(=O)c1cnn(CCOC(=O)c2ccc(F)cc2)c1NC(=O)c1ccc(F)cc1	-11%	1.4	7	3	-26
O=C(NC12CC3CC(CC(C3)C1)C2)c1ccc(Br)o1	.	3.1	.	-2	.
COC(=O)CNC(=O)C1CCCN1C(=O)CNC(=O)OC(C)(C)C (stereo not given)	-8%	-3.3	7	-9	15

Going on with the list.
SMILES	Mtb H37Rv	RecA intein inh	Arbovirus inh	Mtb bLac sens	YopH PTP inh	others
COc1cc(C)c(C(=O)CC(=O)c2c(C)cc(OC)cc2C)c(C)c1	.	15	.	34	.
CSc1nc2ccccc2c(=O)n1C1CCCCC1	.	-1.9	.	-1	.
CC(C)NC(=O)C1CCCN(S(=O)(=O)c2cccs2)C1 (stereo not given)	-6%	3.6	-1	-8	-55
CCOc1ccc(C(=O)c2cnc3ccccc3c2N2CCN(CC)CC2)cc1	-3%	-1.3	12	3	.
N#Cc1ccccc1NC(=O)COc1ccc2c(c1)OCO2	.	-15	.	2	.
O=C1CC(N2CCN(c3ccc(O)cc3)CC2)C(=O)N1Cc1cccs1 (stereo not given)	-10%	.	-9	39	-208
Cc1ccsc1-c1nc(CSCC(=O)NCCN2CCCC2)c(C)o1	-6%	2.6	0	-1	-49
COc1ccc(N2CCN(C(c3ccccc3OC)c3nnnn3Cc3ccco3)CC2)cc1 (stereo not given)	3%	2.8	-1	-5	-18
NC(=O)c1ccc(NC(=O)CCN2C(=O)c3ccccc3C2=O)cc1	.	-1.6	.	0	.
CCOc1ccc(CN2CCN(C(=O)c3cccc4ccccc34)CC2)cc1	.	4.0	.	3	.

Structures shown so far that contain an NH in an aromatic ring:
SMILES	Mtb H37Rv	RecA intein inh	Arbovirus inh	Mtb bLac sens	YopH PTP inh	others
N#Cc1c(-c2ccccc2)nc(SCC(=O)N(c2ccccc2)c2ccccc2)[nH]c1=O	-7%	16	33*	6	-22
CCN(CC)CCCNC(=O)c1[nH]c(C)c(C(=O)NC2CCCCC2)c1C	-14%	-1.3	2	?	-21
CC(=O)c1c(C)[nH]c(C(=O)Nc2ccc(C)c(C)c2)c1C	2%	2.2	0	5	-1
Cn1c(=O)[nH]c(=O)c2c1nc(N1CCCCCC1)n2CCSc1nc2ccccc2o1	.	-4.5	-3	-6	.	Arbovirus inh repeat=-2
CC(=O)c1c(C)[nH]c(-c2ccccc2)c1C	1%	3.1	-11	-4	-16
CCOC(=O)NC(=O)c1cn(Nc2ncc(Cl)cc2C(F)(F)F)c(=O)[nH]c1=O	-9%	-0.5	.	-1	.
CC(C)C/C=C1\CCc2c([nH]c3ccccc23)C1=O	6%	-0.7	11	7	.
CCCCOc1ccccc1NC(=O)c1ccc(=O)[nH]c1	-11%	-1.4	4	2	-17
COCCOC(=O)C1=C(C)Nc2cc(=O)[nH]c(=O)n2C1c1cccc([N+](=O)[O-])c1 (stereo not given)	6%	2.0	18	4	-37
S=c1nccc(-c2cc(Cl)sc2Cl)[nH]1	-11%	2.6	0	8	-20
